Bioassay records: PubChem, NMMLSC
Autofluor counter = counter-screen for toxin protease inhibitors: compound fluorescence. actives 3.1% (n = 360,000). fluorescence intensity (test concentration not listed). compound autofluorescence counterscreen, microsphere flow cytometry; hits give high values;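 active = at least 3 SD above the mean of all compounds, about 16000 in these data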;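 note: 100 nL of 1 mM stock went into each well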
* = called active by the depositor. The list is partial; the hit share may differ from the screen's.

compound | Autofluor counter
O=C(Oc1ccc(=O)[nH]n1)c1ccccc1 | 3656
CCNC(=O)C1(C)CCN(C(=O)c2ccc(OC)c(OC)c2)C1 (centres undefined) | 3513
CC(C)(C)Nc1c(C2CCNCC2)nc2c(OCc3ccccc3)cccn12 | 6045
O=C(OCc1ccccc1)N1Cc2ccnnc2CC1c1ccccc1Br (centres undefined) | 6298
C[C@H](CO)N1C[C@H](C)[C@@H](CN(C)C(=O)NC2CCCCC2)OCc2cnnn2CCCC1=O | 3726
CCOc1ccc(S(=O)(=O)N2CCC(C(=O)Nc3ccccc3N3CCCC3)CC2)cc1 | 4356
CCc1ccc(-n2c(=S)sc3c(=O)[nH]c(SCC(=O)NC4CCCCC4)nc32)cc1 | 3077
CN(C)CCCOc1ccc(-c2cc3nc(NCc4cccnc4)n(C)c(=O)c3s2)cn1 | 3519
CC(C)C(N)c1csc(Nc2ccc(C(=O)c3ccccc3)cc2)n1 (centres undefined) | 2875
O=C(NCCS(=O)(=O)N1CCN(C(=O)c2ccco2)CC1)c1ccccc1 | 3677
CC(C)(C)OC(=O)N1CCC[C@H]1C(=O)N1CCC[C@H]1C(=O)NCc1ccc(F)cc1F | 6085
C1CCN(CCC2CCCCN2)CC1 (centres undefined) | 3284
CCCc1c(-c2ccccc2)ncn1Cc1ccccc1OC | 5538
O=C(NCCN1CCOCC1)C(=O)NCC1OCCN1S(=O)(=O)c1ccc(Cl)cc1 (centres undefined) | 3659
COc1ccc(C(=O)Nc2c(F)c(F)c(F)c(F)c2F)cc1OC | 6020
COC(=O)[C@@]1(C(C)C)N=C(c2cc(OC)c(OC)c(OC)c2)[C@]2(O1)C(=O)Nc1ccccc12 | 5878
Cc1ccc(C(=O)OCC(=O)Nc2c(C)nn(-c3ccccc3)c2C)c(O)c1 | 3772
Cc1ccccc1NC(=O)Nc1nc(C(N)Cc2ccccc2)cs1 (centres undefined) | 3767
CN(C)c1ccc(Cl)c(NC(N)=S)c1 | 4332
CC(C)N=C(NC(C)C)N1CC1 | 4081
OC[C@@H]1CN(Cc2ccc(-c3ccccc3)cc2)C[C@H](n2cnc3c(NC4CC4)ncnc32)O1 | 3330
COc1cc(N=Nc2ccc(Br)cc2)cc(C=O)c1O | 3692
Nc1ccc(Cl)cc1C(=O)c1ccc[nH]1 | 3768
CCCN(C)C1CN(Cc2cn(Cc3cc(C)cc(C)c3)nn2)S(=O)(=O)C1 (centres undefined) | 4230
COc1cccc(Cn2cnc(-c3ccccc3OC)c2-c2cccs2)c1 | 4547
C=Cc1ccc(Cn2c(C)c(C(=O)NCc3ccccc3C(F)(F)F)sc2=O)cc1 | 5815
C=CCN(CC=C)Cc1cc(=O)oc2cc(C)cc(C)c12 | 5963
CN1CCN(c2ccc3c(c2)OC[C@@H](Cc2ccccc2)NS3(=O)=O)CC1 | 4247
CC(C)NC(=O)c1cc(-c2ccc(F)cc2OC(C)C)n[nH]1 | 4203
O=C(OCc1cn([C@@H]2C[C@H](c3ccccc3)N(C(=O)C3CCCCC3)C[C@H]2O)nn1)c1ccccc1 | 3536
Cc1ccc(S(=O)(=O)N2CCC(=O)N([C@H](COCc3ccccc3)C(C)C)CC2)cc1 | 5309
CC1=C(C(=O)N(C)C)CC(CC(=O)NCc2cccs2)C(=O)N1CCCN1CCCC1=O (centres undefined) | 2976
C[C@@H]1CN([C@H](C)CO)S(=O)(=O)c2ccc(Br)cc2O[C@H]1CN(C)C(=O)C1CC1 | 4431
COc1ccc([C@H]2C[C@@H](n3cc(C4CC4)nn3)[C@H](O)CN2C(=O)c2cccs2)cc1 | 3409
COc1ccc(NC(=O)c2cc(C3CCCCN3C(=O)c3cc(F)ccc3C)on2)c(C)c1 (centres undefined) | 2979
CCCCOC1OCN(C2CCCCC2)CC1(C)C (centres undefined) | 3043
CC(C)(C)c1ccc(C(=O)NCc2nnc(SCC(=O)N3CCCC3)o2)cc1 | 3979
COC[C@H]1CCCN1c1ccc2c(c1)O[C@H](COCc1ccccc1)CN([C@H](C)c1ccccc1)S2(=O)=O | 6324
COC(=O)c1ccc2nc(-c3ccc(F)cc3)c(CC3CCCCC3)n2c1 | 7443
O=C1NC[C@@H](CCCCN2CCN(CC3CCCCC3)C(=O)C2=O)N(CC2CCCCC2)C1=O | 5841
CC1(Oc2cccc(F)c2)CCN(Cc2ccccc2OC(F)F)C1 (centres undefined) | 4127
CCCNC(=O)C1(C)CCCN(CCC(=O)c2ccccc2)C1 (centres undefined) | 3613
CC(=O)Nc1cc(-c2ccc(N)nc2)cn2c(-c3cccc(C(F)(F)F)c3)cnc12 | 4775
CC1(C(=O)NS(=O)(=O)Cc2cccc(Cl)c2)CCN1C(=O)c1ccc(C2CCCCC2)cc1 (centres undefined) | 3820
C=CCn1c(C)nnc1SCC(=O)N1c2ccccc2NC(=O)C1(C)C | 4051
COc1ccccc1OCCSc1nc2ccccc2n1CC(=O)O | 3542
COC(=O)C[C@H]1C[C@H]2c3cc(NC(=O)CC4CC4)ccc3O[C@H]2[C@H](CO)O1 | 2943
N#Cc1cnn(-c2cc(Cl)ccc2Cl)c1N | 2772
CC(=O)Nc1cncc(-c2cccc(N(C)C)c2)n1 | 3622
CC(C)Nc1nc(NCc2ccccc2)c2sccc2n1 | 3920
COC(=O)C1CCN(C2CN(C3CCCCC3)S(=O)(=O)C2)CC1 (centres undefined) | 4190
Cc1ccc(S(=O)(=O)N2CCOCC2)cc1C(=O)OCC(=O)Nc1ccc(Cl)cn1 | 5383
Cc1nc2c(OCc3ccc(C#N)cc3)cccn2c1N(C)Cc1cccs1 | 3675
O=c1[nH]c2ccccc2n1C1CCN(C(c2nnnn2Cc2ccccc2)C2CC2)CC1 (centres undefined) | 5941
Cc1ccc(S(=O)(=O)N(C)C[C@@H]2OCc3cn(nn3)CCCC(=O)N([C@H](C)CO)C[C@H]2C)cc1 | 4527
COc1ccc(-c2nc3c(C)cc(Br)cn3c2Cc2ccc(C)cc2)cc1OC | 5822
O=C(c1ccc(-c2ccccc2)cc1)N1CCN(c2ccc3c(c2)C2CC3CCN2C(=O)OCc2ccccc2)CC1 (centres undefined) | 4117
CCOC1=C2[C@@H](CN(S(=O)(=O)c3ccc(C)cc3)[C@H]2c2cccc3ccccc23)[C@H]2C(=O)N(C)C(=O)[C@H]2C1 | 5883
O=C(Nc1ccc2c(c1)OCO2)c1cc(C2CCCCN2S(=O)(=O)c2ccccc2)on1 (centres undefined) | 2990
COc1ccc(C(=O)N2CCCC2(C)C(=O)NCC(C)C)cc1C(F)(F)F (centres undefined) | 2790

Next section; the last 5 above are carried over.
compound | Autofluor counter
COc1ccc(-c2nc3c(C)cc(Br)cn3c2Cc2ccc(C)cc2)cc1OC | 5822
O=C(c1ccc(-c2ccccc2)cc1)N1CCN(c2ccc3c(c2)C2CC3CCN2C(=O)OCc2ccccc2)CC1 (centres undefined) | 4117
CCOC1=C2[C@@H](CN(S(=O)(=O)c3ccc(C)cc3)[C@H]2c2cccc3ccccc23)[C@H]2C(=O)N(C)C(=O)[C@H]2C1 | 5883
O=C(Nc1ccc2c(c1)OCO2)c1cc(C2CCCCN2S(=O)(=O)c2ccccc2)on1 (centres undefined) | 2990
COc1ccc(C(=O)N2CCCC2(C)C(=O)NCC(C)C)cc1C(F)(F)F (centres undefined) | 2790
CCCCCC(=O)N1C[C@@H](n2cc(C3CC3)nn2)[C@H](O)C[C@@H]1c1ccc(OC)cc1 | 3424
Cc1nc2ccccn2c(=O)c1NC(=O)c1ccc(Br)o1 | 3822
Cc1ccc2nc(C3CCCCC3)c(Cc3ccccc3C(F)(F)F)n2c1 | 4104
CCCS(=O)(=O)NC(=O)C1(C)CCCN(C(=O)c2cc(C(C)(C)C)nn2C)C1 (centres undefined) | 2829
CCCCCC(=O)N1C[C@H](n2cc(C3CC3)nn2)[C@@H](O)C[C@@H]1c1ccc(Cl)cc1 | 3477
OC(c1ccc(Cl)c(Cl)c1)c1ncc(-c2ccccc2F)[nH]1 (centres undefined) | 2825
CCN1C(=O)[C@H]2[C@@H](c3ccc(OC)cc3)N[C@]3(CCCN(CC4CCCCC4)C3=O)[C@H]2C1=O | 3879
C[C@@H]1CCCCO[C@@H](CN(C)Cc2ccc(Cl)c(Cl)c2)[C@@H](C)CN([C@H](C)CO)C(=O)c2cc(NC(=O)Nc3ccccc3)ccc2O1 | 4585
CC1(C(=O)NS(=O)(=O)Cc2cccc(Cl)c2)CCN1C(=O)c1cccc(F)c1 (centres undefined) | 3625
CS(=O)(=O)c1ccc(Cl)c(NC(=O)c2ccc(-n3cncn3)c([N+](=O)[O-])c2)c1 | 3072
CC1=C(C(=O)N(C)C)CC(CC(=O)NCCc2ccccn2)C(=O)N1CCC1=CCCCC1 (centres undefined) | 3739
COC(=O)C[C@H]1C[C@@H]2c3cc(NC(=O)CN(C)C)ccc3O[C@@H]2[C@H](CO)O1 | 4168
CCc1nc2ccc(C(=O)NCCNC(C)=O)cn2c1N(CC)CCOC | 3949
CC1NC(=O)c2cccnc2-n2c1nc1cc(F)c(F)cc1c2=O (centres undefined) | 3832
Cc1ccc2nc(-c3ccc(Cl)cc3)c(CC3CCCCC3)n2c1 | 6838
COc1cccc(COC(=O)C(Cc2ccccc2)NC(=O)c2ccco2)c1 (centres undefined) | 3979
O=S(c1cc(Cl)cc(Cl)c1O)c1cc(Cl)cc(Cl)c1O | 6166
O=C(COC(=O)c1ccc(F)cc1F)Nc1ccc(S(=O)(=O)N2CCOCC2)cc1 | 3606
C[C@@H]1CN([C@@H](C)CO)C(=O)CCCn2cc(nn2)CO[C@H]1CN(C)C(=O)c1cc(-c2ccccc2)on1 | 3518
c1ccc2c(c1)COc1c3ncccc3nn1-2 | 3059
C[C@H]1C(=O)N(C)CCN1C(=O)c1ccc(OC2CCN(CCc3ccccc3)CC2)cc1 | 3620
CCC(c1nnnn1-c1ccc2c(c1)OCCO2)N1CCN(C(C)=O)CC1 (centres undefined) | 5865
CC(=O)N1CCN(C(c2ccccc2)c2nnnn2C(C)(C)C)CC1 (centres undefined) | 6279
Cc1cccc(C)c1Cn1c(C)c(C(=O)NCc2ccccc2C(F)(F)F)sc1=O | 5285
COc1cccc(-c2ccc3c(c2)O[C@@H](CN(C)C(=O)C2CCOCC2)[C@H](C)CN([C@H](C)CO)S3(=O)=O)c1 | 3186
O=S1(=O)CC(N2CCSCC2)CN1Cc1cn(Cc2ccccc2)nn1 (centres undefined) | 5634
C[C@H](CO)N1C[C@H](C)[C@@H](CN(C)Cc2ccccc2)OCCCC[C@H](C)Oc2ccc(N(C)C)cc2C1=O | 3747
CC1=C(C(=O)N2CCOCC2)CC(CC(=O)NCC2CCCCC2)C(=O)N1CCC1=CCCCC1 (centres undefined) | 3815
CN1OC[C@@H]2CN[C@H](c3cccc(N4CCOCC4)c3)C[C@@H]21 | 2902
COc1ccc(C(=O)c2[nH]c(N)c(C(=O)NCCc3c[nH]c4ccccc34)c2-c2c(F)cccc2Cl)cc1 | 4585
CCc1nc2c(OCc3ccc(Cl)cc3Cl)cccn2c1N(C)C(=O)CC(C)C | 2963
CC1(C(=O)NS(=O)(=O)c2ccc(Br)cc2)CCN1C(=O)c1cccc(F)c1 (centres undefined) | 3506
COc1cc(Nc2ncc3c(n2)CCN(C(=O)Nc2ccc(C(C)C)cc2)C3)cc(OC)c1OC | 3592
CC1(C(=O)NS(=O)(=O)c2ccc3c(c2)CCO3)CCN1C(=O)C1(c2ccc(Cl)cc2)CCC1 (centres undefined) | 3577
FC(F)(F)C(F)(F)c1nc2nc(Cl)c(Cl)nc2[nH]1 | 2831
CCCn1cnnc1CNC(=O)[C@H]1O[C@@H](n2cnc3c(N)ncnc32)[C@H](O)[C@@H]1O | 3833
COc1nc(=O)n(C2C=CC(=O)O2)cc1F (centres undefined) | 2848
CCOC(=O)C1=CCN(S(=O)(=O)c2ccccc2F)C1c1ccc(Cl)cc1 (centres undefined) | 5347
NC(=O)C1CC(=O)N(c2ccc(OCc3ccc(Cl)c(Cl)c3)cc2)C1 (centres undefined) | 3446
CC1=C(C(=O)N2CCCCCC2)CC(CC(=O)NCCc2ccccn2)C(=O)N1Cc1ccc(F)cc1 (centres undefined) | 5572
CSc1ccc(CNC(=O)C2(C)CCCN(C(C)=O)C2)cc1 (centres undefined) | 4609
OC(c1ccc(Cl)c(F)c1)c1ncc(-c2ccccc2Cl)[nH]1 (centres undefined) | 3969
O=S1(=O)CC(N2CC=CC2)CN1C1CCCCC1 (centres undefined) | 5973
Clc1cccc(-c2cccc3nccn23)c1Cl | 3658
O=C(O)CSc1ccn(Cc2ccccc2)c1 | 3905
FC(F)C(F)(F)Oc1cccc(Nc2nccn3c(-c4cccc5ccccc45)cnc23)c1 | 3876
O=C1NCN(c2ccccc2)C12CCN(C(c1nnnn1-c1ccc3c(c1)OCCO3)C1CC1)CC2 (centres undefined) | 5452
CCOC(=O)C1(C)CCCCCN1C(=O)c1ccc(OC)c(C(F)(F)F)c1 (centres undefined) | 3657
COc1ccc(CC(N)c2csc(Nc3ncccn3)n2)cc1 (centres undefined) | 3869
COc1cc(CNc2ncnc3c2ncn3[C@H]2CN(Cc3ccc(C(=O)O)cc3)C[C@@H](CO)O2)cc(OC)c1OC | 2979
CC1=C(C(=O)N2CCOCC2)CC(CC(=O)NCCc2ccccn2)C(=O)N1CCCN1CCCC1=O (centres undefined) | 5999
COc1ccc([C@H]2CN(CCc3ccccc3)C(=O)[C@@H]2CC(=O)Nc2ccccc2)cc1 | 3950
CCCS(=O)(=O)NC(=O)C1(C)CCCN(C(=O)c2cc(C)n(C(C)(C)C)n2)C1 (centres undefined) | 3382
Cc1ccsc1C(=O)N1CCC1(C)C(=O)NS(=O)(=O)c1cccc(F)c1 (centres undefined) | 3935
c1ccc2sc(-n3cc(C4CCCCC4)nn3)nc2c1 | 5956
COC(=O)c1ccc(N2C(c3cccc(OC)c3)=Cc3ccc(F)cc3C2c2c(C)[nH]c3ccccc23)cc1 (centres undefined) | 5657

Quoted from the listing:
`CC1(C(=O)NS(=O)(=O)c2ccc3c(c2)CCO3)CCN1C(=O)C1(c2ccc(Cl)cc2)CCC1` (centres undefined) in Autofluor counter: 3577
`COC(=O)c1ccc(N2C(c3cccc(OC)c3)=Cc3ccc(F)cc3C2c2c(C)[nH]c3ccccc23)cc1` (centres undefined) in Autofluor counter: 5657
`CCCS(=O)(=O)NC(=O)C1(C)CCCN(C(=O)c2cc(C)n(C(C)(C)C)n2)C1` (centres undefined) in Autofluor counter: 3382
`CCOC(=O)C1=CCN(S(=O)(=O)c2ccccc2F)C1c1ccc(Cl)cc1` (centres undefined) in Autofluor counter: 5347
`O=S1(=O)CC(N2CC=CC2)CN1C1CCCCC1` (centres undefined) in Autofluor counter: 5973
